# gsp antag: gsp mutant antagonism. AID 624288. gsp-mutant cells, cAMP HTRF, 30 min; control for the full effect not named in the record. Potency, µM (titrated, usually from 76.9 µM), for the others: top-dose activity change, negative = inhibition, hits mostly inhibitors. 340,000 tested, 0.4% active; active = falling curve of any shape with a large fitted effect; inconclusive = falling curve, mostly with a smaller effect; inactive = flat or rising curve; cell line not stated here;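 further: intracellular cAMP measured with PDE inhibitor Ro 20-1724 present during compound exposure; potency means the concentration at half of the fitted maximal effect; on the % scale 0 is the no-effect control and ±100 the full control effect; nearly all actives have a fitted effect of over 65% in size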
#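 Measurement of cellular cAMP by homogeneous time-resolved fluorescence following a 30 min compound exposure at 37C. The PDE inhibitor […] was present throughout; the assay buffer was DPBS with 0.05% BSA and 0.005% Tween 20.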
# gsp agonist: gsp mutant agonism; Potency, µM (doses to about 76.9 µM), inactives show at the top dose activation (cAMP increase), usual class: activators; gsp mutant cells, cAMP HTRF, 30 min; control for the full effect not named in the record; 340,000 tested, 0.13% active; active = well fitted activation curve with a large enough effect; inconclusive = small, poorly fitted or top-dose-only effect, or another doubt; inactive = no such curve, though single readings can be large or run the other way; cell line not stated here;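 further: phosphodiesterase inhibitor Ro 20-1724 added with compounds to block cAMP breakdown; potency means the concentration at half of the fitted maximal effect; nearly all actives have a fitted effect of over 60% in size; about a fifth of the inactives were tested at one dose only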
#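 Cells in DMEM/10% FBS with G418 were pretreated with compounds in DMSO plus […] (300 uM stock) for 30 min at 37C. cAMP was measured by HTRF (cAMP-d2 plus anti-cAMP antibody-K) after 30 min at room temperature.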
# Six1-Eya2 inh: blocks human Six1 binding to Eya2. AlphaScreen GST-Six1/His-Eya2 binding, biochemical; stronger effect = lower value; control for the full effect not named in the record. activity change, % (test concentration not listed). 360,000 tested, 0.56% active. AID 651725; in the data active = activity change below about -65%; inconclusive = about -30% to -65%; inactive = above about -30%; further: on the % scale 0 is the no-effect control and ±100 the full control effect; compound concentration not given in the record
#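 AlphaScreen luminescence read after one hour at 37 °C in darkness. Pin-transferred compounds met GST-Six1 and His-Eya2 protein (5X stock 250 nM/500 nM) plus glutathione donor and Ni-chelate acceptor beads (5X, 50 ug/mL).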
# D2 ag: human D2 receptor agonism in beta-arrestin assay; P14416; DiscoveRx PathHunter D2 beta-arrestin, luminescence, 90 min; 100% = 57 uM dopamine signal; activation, % (no concentration beside the values); 360,000 tested, 0.084% active; AID 624465; in the data active = activation above about 40%; inconclusive = about 15% to 40%; inactive = below about 15%; further: compound concentration not given in the record; the text of the record calls up to 30% inactive
# Target sequence (P14416 whole entry, looked up): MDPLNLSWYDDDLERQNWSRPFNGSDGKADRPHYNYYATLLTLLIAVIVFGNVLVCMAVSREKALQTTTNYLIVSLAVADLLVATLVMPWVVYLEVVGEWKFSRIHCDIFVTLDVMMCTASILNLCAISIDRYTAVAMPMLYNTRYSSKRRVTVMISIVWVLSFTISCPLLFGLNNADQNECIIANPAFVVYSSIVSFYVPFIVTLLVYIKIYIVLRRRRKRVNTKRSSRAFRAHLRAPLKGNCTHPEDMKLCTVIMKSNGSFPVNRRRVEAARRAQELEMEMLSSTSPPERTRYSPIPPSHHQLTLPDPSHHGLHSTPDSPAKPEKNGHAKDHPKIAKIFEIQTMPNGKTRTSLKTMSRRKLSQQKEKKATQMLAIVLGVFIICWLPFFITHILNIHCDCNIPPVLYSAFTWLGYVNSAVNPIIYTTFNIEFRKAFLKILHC
#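 DiscoveRx PathHunter D2 beta-arrestin cells (2,100/well) attached overnight, then compound-stimulated 90 min at 37 C in HBSS/10 mM HEPES/0.1% Tween-20 buffer; beta-galactosidase complementation read by luminescence after 1 h at ambient temperature. Dopamine 57 uM final (EC100) as control.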
# D2 potentiator: potentiates the human D2 dopamine receptor allosterically; potentiation, % (test concentration not listed); 360,000 tested, 0.23% active; DiscoveRx D2 beta-arrestin cells, luminescence, 90 min; 100% = 57 uM dopamine signal; P14416; active = potentiation of 50% or more; inconclusive = 30% to 50%; inactive = 30% or less;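 further: compound concentration not given in the record; tested on top of an EC20 dose of dopamine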
#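 PathHunter beta-arrestin assay in DiscoveRx D2 cells. Compounds were added with an EC20 of dopamine (50 nM final) for 90 min at 37 deg C. Luminescence was read 1 h after detection reagent, with 57 uM dopamine as the EC100 control.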
# CtBP-E1A inh: inhibitors of CtBP/E1A interaction. AlphaScreen GST-E1A/His-CtBP binding, 1536-well; stronger effect = lower value; control for the full effect not named in the record. activity change, % (test concentration not listed). 340,000 tested, 0.49% active. AID 651724; in the data active means activity change below about -65%; inconclusive means about -30% to -65%; inactive means above about -30%; further: on the % scale 0 is the no-effect control and ±100 the full control effect; compound concentration not given in the record
#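 Homogeneous bead-based format: GST-tagged E1A captured on glutathione donor beads, His-tagged CtBP on nickel acceptor beads; compounds precede bead addition by 2 h at 37 °C.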
# Numbers without * were called inactive; ? = inconclusive; . = no result given; [ ] = dose if it differs, or a comment. The order is random. Share with any hit: about 1.4%.
# Order of results – gsp antag	gsp agonist	Six1-Eya2 inh	D2 ag	D2 potentiator	CtBP-E1A inh
CC1(C)CC(=O)C=C(C(=O)N2CCCC(C(=O)c3cccc(Cl)c3)C2)O1 (stereo not drawn)
 : -8%	-1%[15.4 µM]	1	1.2	0	10
CC(C)(C)NC(=O)C(c1ccc(F)cc1)N(Cc1ccco1)C(=O)CCC(=O)Nc1ccccn1 (stereo not drawn)
 : .	17%[15.4 µM]	0	0.9	-7	19
CN(Cc1c(F)cccc1Cl)C(=O)c1cccc(S(=O)(=O)N2CCN(Cc3ccccc3)CC2)c1
 : ?	-1%	-8	8.1	-1	-14
COC(=O)c1sc(NC(=S)NC(=O)c2cccc(Br)c2)nc1C
 : -9%	-6%	-5	0.4	-5	.
COc1cc(-c2nc(C(F)(F)F)c(OC)o2)cc(OC)c1OC
 : 11%	25%	2	-1.5	-15	8
Cc1c[nH]c2ccccc12
 : -8%	.	1	-5.1	-8	-14
Cc1c(N=C2SCC(=O)N2/N=C\c2ccc(Br)cc2)c(=O)n(-c2ccccc2)n1C
 : -21%	-15%[15.4 µM]	-11	0.3	1	-11
COc1cc(C(=O)NC(c2ccccc2)c2ccccc2)cc(Cl)c1OC
 : -14%	-40%[inhibitor]	-1	-2.9	-27	-3
C/C(CC(=O)Nc1ccc2c(c1)OCCO2)=N\NC(=O)c1ccccc1Cl
 : 1%	23%[15.4 µM]	13	-5.0	9	-8
Cc1ccc2c(c1)c(C)cc[n+]2Cc1ccccc1
 : 8%	11%	-1	1.7	-24	-2
CCOc1cc(C(C(=O)NCC2CCCO2)N(C(=O)Cn2nnc3ccccc32)c2ccccc2OC)ccc1O (stereo not drawn)
 : -20%	26%[15.4 µM]	12	9.0	-4	6
COc1ccc(C(=O)n2nc(C#N)c(C#N)c2N)cc1
 : -4%	1%	0	-3.7	4	.
O=C(CN1CCCc2ccccc21)N/N=C/c1ccc(F)cc1F
 : -15%	-13%[15.4 µM]	-12	-0.9	-1	-5
Cc1ccc(S(=O)(=O)N2CC3CCC2C3)cc1 (stereo not drawn)
 : 8%	-20%	20	-2.8	-20	5
Cc1cc(C(=O)N2CCC(Cc3ccccc3)CC2)no1
 : -4%	7%	-5	-3.6	-5	-1
C=C(Br)CN1[C@@H](Cc2ccccc2)[C@H](O)[C@@]23C=C[C@@H](C[C@@H]2S1(=O)=O)O3
 : -18%	20%	4	-2.4	-5	7
O=C1CCN(CCc2ccccc2)CCN1[C@H](CSc1ccc(Br)cc1)c1ccccc1
 : -2%	.	-12	-3.9	-21	-13
O=C(O)C(c1ccccc1)C(O)C1CCCC1 (stereo not drawn)
 : -3%	3%	7	-0.2	-5	6
Fc1ccccc1-c1cc2cc3c(cc2cn1)OCO3
 : -20%	.	13	-1.9	-11	15
NC(=O)c1cccn(Cc2ccc(C(F)(F)F)cc2)c1=O
 : 5%	0%[15.4 µM]	-3	15	0	.
COc1ccc(C(=O)Nc2nc3ccc(OC)cc3s2)cc1
 : -7%	19%	?	-0.4	-3	-72*
O=C(CNC(=O)c1ccc(F)cc1)c1ccc(Cl)cc1
 : 0%	?	-5	-3.4	-4	-17
Cc1nnc(NC(=O)CCn2c(=O)oc3ccc(Cl)cc32)s1
 : 5%	34%	1	1.9	-3	5
O=C(Cn1ncc(Cl)c(Cl)c1=O)c1ccc2c(c1)OCCO2
 : -10%	18%	-3	-5.2	-13	7
CCc1ccc(NC(=O)C2=CC(c3cccs3)=NS(=O)(=O)N2C)cc1
 : -14%	-47%[inhibitor]	-2	-2.1	-6	-6
CCCNC(=O)C1(O)c2cc(Br)ccc2NC(=O)N1c1ccc(Cl)cc1 (stereo not drawn)
 : 7%	3%	9	-16	-4	3
Cc1cc(=O)oc2cc(NC(=O)COc3cccc(C(F)(F)F)c3)ccc12
 : 14%	?	-6	-3.9	-2	-1
O=C(CSc1nnnn1-c1ccc(F)cc1F)Nc1ccccc1F
 : 7%	-16%	0	12	4	12
COc1cc(C(=O)N2CCN(S(=O)(=O)c3ccc(C)cc3)CC2)ccc1OCC(=O)N1CCOCC1
 : -2%	13%	-7	-3.4	-2	.
Fc1cccc2sc(N3CCCC3)nc12
 : 0%	15%[15.4 µM]	7	2.7	2	6
CN(C)CCNC(=O)c1coc(=O)c(Br)c1
 : 2%	-16%	-7	-3.1	20	0
O=[N+]([O-])c1ccc(Nc2nc(N3CCOCC3)nc(N3CCOCC3)n2)cc1
 : 6%	-14%[15.4 µM]	5	-6.0	-1	3
Cc1ccc(CNC(=O)CCCCCNC(=O)N2CCn3c2nc2ccccc23)cc1
 : -4%	12%	4	2.9	0	3
C[C@@]12C(=O)Nc3ccc(Br)cc3C(=O)N1[C@H]1c3ccccc3OC[C@@H]1[C@@H]2c1ccccc1
 : -8%	10%	-12	-2.9	-12	-8
Cc1cc(N)ccc1S(C)(=O)=O
 : 0%	5%	4	-0.4	-12	2
Cc1cccn2c(=O)c(/C=C(\C#N)C(N)=O)c(N3CCCCCC3)nc12
 : -4%	?	-26	4.9	6	?
CCOc1ccccc1NC(=S)N1CCC(NC(=O)NC23CC4CC(CC(C4)C2)C3)CC1
 : -15%	-15%	0	1.4	-4	-3
Cc1cc(C)n2nc(SCC(=O)NCc3ccco3)nc2n1
 : 4%	?	-2	-1.2	-11	0
CCOC(=O)c1ccc(S(=O)(=O)N2CCC(C(=O)NCC3CCCCC3)CC2)cc1
 : 21%	-25%	2	1.3	-1	1
Cc1ccc(/C=N/NC(=O)CCCOc2ccc(Cl)cc2Cl)cc1[N+](=O)[O-]
 : -5%	-5%	-5	-1.6	17	-9
O=C(Nc1ccccc1)C(=O)c1c[nH]c2ccccc12
 : -5%	-4%[15.4 µM]	-3	3.9	-6	2
CCOc1cc(Br)c(C(=O)O)cc1OC
 : 2%	-16%	8	-2.6	-5	8
Cc1cc(NC(=O)CSc2nc(C(C)C)nc3c2c(=O)n(C)c(=O)n3C)no1
 : -1%	?	6	-5.7	-3	11
CCOC(=O)/C(C#N)=C/c1cn(CCC(=O)O)nc1-c1ccc(Cl)cc1
 : ?	22%	3	0.1	-12	-9
O=C(CC1SC(=O)N(Cc2ccc(Cl)cc2)C1=O)Nc1nccs1 (stereo not drawn)
 : 2%	0%	9	2.6	13	-4
N#CC1(Nc2ccc(C(=O)O)cc2)CCCC1
 : 5%	-12%	28	-6.5	-7	5
CC(C)CCNC(=O)Cc1csc(-c2ccccc2)n1
 : -25%	-4%[15.4 µM]	32	1.1	-6	3
COc1cc(C(=O)NC(CCSC)C(=O)Nc2ccc(N3CCOCC3)cc2)cc(OC)c1OC (stereo not drawn)
 : .	-13%	7	-0.1	-29	-22
CCOC1=C2[C@@H](CN(S(=O)(=O)c3ccc(C)cc3)[C@H]2c2cccc3ccccc23)[C@H]2C(=O)N(Cc3ccccc3)C(=O)[C@H]2C1
 : .	.	1	-3.5	-7	-4
COCCN(C(=O)COC(=O)c1ccc(-c2ccccc2)cc1)c1c(N)n(Cc2ccccc2)c(=O)[nH]c1=O
 : -14%	8%	-1	-1.2	2	-1
Cc1cccc(N2C(=O)C3C4CC(=O)C(c5ccccc54)C3C2=O)c1C (stereo not drawn)
 : 3%	22%	7	-1.3	-4	1
CC(C)(C)OC(=O)NCCCC[C@H](NC(=O)c1nc[nH]c1C(=O)N1CCc2ccccc2C1)C(=O)OC(C)(C)C
 : ?	.	-5	1.9	2	0
CCOC(=O)C(C)Sc1nnc(NC(=O)c2ccc(C)c([N+](=O)[O-])c2)s1 (stereo not drawn)
 : ?	-70%[inhibitor]	-6	-0.4	9	3
COc1ccc(-c2noc(-c3cccc(Cl)c3)n2)cc1OC
 : 14%	-25%	-2	-3.3	-15	-22
O=C(Nc1nccs1)c1sc2ccccc2c1Cl
 : 5%	?	10	-4.9	-33	24
CCN(CCCNC(=O)C1CCC(=O)N1Cc1ccccc1Cl)c1cccc(C)c1 (stereo not drawn)
 : -9%	-26%	-11	-3.6	-37	-8
CN(CC(=O)Nc1cc(S(=O)(=O)N2CCCCCC2)ccc1Cl)Cc1ccc2c(c1)OCO2
 : -2%	-24%	15	-1.6	-6	-11
CC(=O)Nc1ccc2c(c1)OCCO2
 : -22%	27%	0	-3.2	1	-2
CCN1C(=O)CC(N2CCC(c3nc4ccccc4[nH]3)CC2)C1=O (stereo not drawn)
 : 20%	-4%[15.4 µM]	2	-17	2	12
COCCNC(=O)CN1C(=O)NC(c2ccccc2)(c2ccccc2)C1=O
 : -5%	-6%[15.4 µM]	-1	-2.3	-6	6

# Next part, starting with the last three of the part before.
# Order of results – gsp antag	gsp agonist	Six1-Eya2 inh	D2 ag	D2 potentiator	CtBP-E1A inh
CC(=O)Nc1ccc2c(c1)OCCO2
 : -22%	27%	0	-3.2	1	-2
CCN1C(=O)CC(N2CCC(c3nc4ccccc4[nH]3)CC2)C1=O (stereo not drawn)
 : 20%	-4%[15.4 µM]	2	-17	2	12
COCCNC(=O)CN1C(=O)NC(c2ccccc2)(c2ccccc2)C1=O
 : -5%	-6%[15.4 µM]	-1	-2.3	-6	6
O=C(c1ccccc1C(=O)N1CCN(c2ccccc2)CC1)N1CCN(c2ccccc2)CC1
 : -9%	2%	-12	-3.1	2	-5
CCOC(=O)c1cccc(NC(=O)N2CCOCC2)c1
 : 4%	13%	3	-0.1	1	-2
CC(=O)Oc1ccc(C(=O)Nc2cccnc2)cc1
 : 6%	0%[15.4 µM]	5	-3.4	-6	1
CCOc1ccc(C(=O)C(c2ccccc2)N2CCOCC2)cc1 (stereo not drawn)
 : 9%	19%	20	-3.8	-4	23
CCOC(=O)N1CCC(Nc2c(NCCN3CCN(Cc4ccccc4)CC3)c(=O)c2=O)CC1
 : -1%	-21%	2	-0.4	-19	11
O=C(NCc1cccnc1)Nc1cccc(NC(=O)NCc2cccnc2)c1
 : 10%	-8%	3	0.4	11	3
Nc1ccc(-n2c(N)c(C(=O)NCc3ccc4c(c3)OCO4)c3nc4ccccc4nc32)cc1
 : 0%	-4%	-2	-6.3	-14	-8
Cc1ccc(Cl)c(OCC(=O)NCc2ccco2)c1
 : -7%	-10%	-4	-1.4	-11	-1
CC1CCN(C(=O)CN2C(=O)NC(C)(c3ccc4ccccc4c3)C2=O)CC1 (stereo not drawn)
 : 6%	7%	-6	-1.7	-10	-2
Cn1c(=O)c(-c2ccccc2N)nc2ccccc21
 : -8%	7%	-12	0.4	-5	-10
O=C(O)c1ccccc1NS(=O)(=O)c1ccc2c(c1)OCCO2
 : -1%	2%	10	0.8	-5	7
O=C(c1ccc(=O)n(Cc2ccccc2)n1)N1CCN(C/C=C/c2ccccc2)CC1
 : -24%	-16%	-8	-0.9	-17	-8
Cc1ccc(Sc2ncccc2C(=O)NCC(c2ccc(F)cc2)N2CCOCC2)c(C)c1 (stereo not drawn)
 : -1%	-3%	3	-11	9	-15

# Screening data from PubChem.
